# Source: PubChem (National Center for Advancing Translational Sciences (NCATS))
# VDR inhibitor: Inhibitors of the vitamin D receptor (VDR): qHTS. Vitamin D3 receptor (Homo sapiens), P11473. VDR-SRC2-3 peptide fluorescence polarization, 2 h. Potency, µM, for inactives: max response, negative = inhibition, usual class: inhibitors. 0.93% of 400,000 active; active = well fitted inhibition curve with a large enough effect; inconclusive = small, poorly fitted or top-dose-only effect, or another doubt; inactive = no such curve, though single readings can be large or run the other way; note: series mostly up to about 120 µM
# Target sequence (P11473 whole entry, looked up): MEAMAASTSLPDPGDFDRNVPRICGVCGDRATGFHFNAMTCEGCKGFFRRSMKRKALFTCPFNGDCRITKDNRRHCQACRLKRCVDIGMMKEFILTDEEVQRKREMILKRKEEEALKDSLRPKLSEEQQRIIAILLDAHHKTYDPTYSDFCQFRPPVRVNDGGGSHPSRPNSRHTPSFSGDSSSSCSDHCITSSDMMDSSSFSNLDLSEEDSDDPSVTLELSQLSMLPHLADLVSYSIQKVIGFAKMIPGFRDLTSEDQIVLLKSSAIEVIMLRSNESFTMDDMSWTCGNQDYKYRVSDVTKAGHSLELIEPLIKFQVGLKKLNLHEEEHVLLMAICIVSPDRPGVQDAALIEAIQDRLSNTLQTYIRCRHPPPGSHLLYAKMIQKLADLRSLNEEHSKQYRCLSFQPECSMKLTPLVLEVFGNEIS
#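 VDR–SRC2-3 interaction, FP format. Cmpds 23 nl via pintool, brief spin, 2 h ambient incubation.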
# Active calls of the source: *; ? = inconclusive; & = joins results of further samples; [ ] = remark or other dose. % is set by controls: 0 for no effect and ±100 for the full control effect; potency is the fitted concentration of half-maximal effect.
VDR inhibitor | SMILES
4.6% | CCCCCNC(=O)c1ccc2c(c1)ncn2-c1cccc(C)c1
-1.0% | COc1ccc(NC(=O)N2CC3(CCN(C(=O)c4cnccn4)CC3)C2)cc1
-4.3% | CCOc1ccc(N2CC(c3nc4ccccc4n3Cc3cccc(Cl)c3)CC2=O)cc1 (stereo unspecified)
-14.8% | CC1=C(C(=O)NC2CCCCC2C)C2(CCC(C)CC2)OC1=O (stereo unspecified)
-13.4% | CCOc1ccc(S(=O)(=O)Nc2ccc3c(c2)n(C)c(=O)n3C)cc1
7.9% | CCOc1ccc(CNC(=O)c2ccc3c(c2)c(C)c(C)n3Cc2ccccc2)cc1OC
-7.3% | O=C(CSc1nc2ccccc2s1)N/N=C/c1ccc(C(=O)O)cc1
-5.6% | CN(Cc1cn[nH]c1-c1ccc(-c2ccccc2)cc1)CC1CCOCC1
2.7% | COc1ccccc1CNC(=O)CC(c1ccc(C)cc1)N1Cc2ccccc2C1=O (stereo unspecified)
-4.6% | COc1ccc2cc1Oc1ccc(cc1)C[C@H]1c3cc(c(OC)cc3CCN1C)Oc1c(OC)c(OC)cc3c1[C@H](C2)N(C)CC3
3.1% | OC1CN=C2C=CC=CN2C1 (stereo unspecified)
-15.5% | O=C(c1cccc(C(F)(F)F)c1)N1CCC2(CC1)NCCc1[nH]cnc12
-8.6% | CC1CCCN(c2ccc(C(=O)NCc3ccc4c(c3)OCO4)cc2[N+](=O)[O-])C1 (stereo unspecified)
-19.5% | O=C(CSc1ccc(-c2ccco2)nn1)N1CCCCC1
1.7% | COc1ccc(C2CC(=O)c3cc(-c4nc(-c5cccc([N+](=O)[O-])c5)cs4)c(=O)n(-c4ccccc4N)c3C2)cc1 (stereo unspecified)
10.3% | CCc1ccc(CN(C)CC(=O)Nc2ccc(S(=O)(=O)N3CCOCC3)cc2)cc1
4.5% | Cc1ccc(NS(=O)(=O)c2c(C(=O)N3CCC(C)CC3)c(C)n(C)c2C)cc1Cl
23.1% | CCn1c(=O)c(C(=O)CN2CCN(Cc3ccc4c(c3)OCO4)CC2)c(N)n(Cc2ccccc2)c1=O
6.2% | O=C(NCCC1=CCCCC1)c1ccc2c(c1)N(Cc1cccc(Cl)c1)C(=O)c1ccccc1S2(=O)=O
-4.6% | CN(CCO)c1c2c(nc3cc(-c4cccc(F)c4)nn13)CCCC2

# Part of the list above in a different format.
SMILES | VDR inhibitor
O=C(c1cccc(C(F)(F)F)c1)N1CCC2(CC1)NCCc1[nH]cnc12 | -15.5%
CC1CCCN(c2ccc(C(=O)NCc3ccc4c(c3)OCO4)cc2[N+](=O)[O-])C1 (stereo unspecified) | -8.6%

# Next section.
VDR inhibitor | SMILES
-1.7% | CC(C)(C)c1ccc(NC(=O)NC2CCCc3ccccc32)cc1 (stereo unspecified)
-3.8% | COc1cc(C(=O)O/N=C2\C=CC(=O)C=C2C)cc(OC)c1OC
-7.4% | COCCCNc1nc(-c2ccncc2)nc2ccccc12
12.0% | CC1SCC(=O)N(CC(=O)Nc2ccc3c(c2)OCCO3)C1=O (stereo unspecified)
1.4% | N#Cc1ccc(-c2cccs2)nc1SCc1cccnc1
-23.2% | O=C(CCn1c2c(c3ccccc31)CCCC2)NNC(=O)c1ccccc1[N+](=O)[O-]
-14.3% | Cc1ccc(NC(=O)CSc2ncn[nH]2)cc1
5.5% | CCN(Cc1ccncc1)C(=O)c1ccc(C)c(S(=O)(=O)N2CCCCC2)c1
-0.2% | NC(=O)c1oc2ccccc2c1NC(=O)C1CCCCC1
10.7% | COC(=O)CNC(=O)c1c(-c2c(Cl)cccc2Cl)noc1C
-14.2% | COc1oc(-c2ccccc2C)nc1C(F)(F)F
7.1% | CCN1C(=O)C(CC(=O)Nc2cc(C)ccc2C)SC1=Nc1ccc(S(N)(=O)=O)cc1 (stereo unspecified)
7.9% | CCc1ccc(NC(=O)CSc2nccn2-c2cccc(C)c2C)cc1
-6.8% | CC(=O)Nc1cccc(NC(=O)CSc2cn(CC(=O)N3CCCCCC3)c3ccccc23)c1
6.7% | O=C(NCc1ccccc1)c1ccc(N2CCC3(CC2)CC(c2ccc(Cl)cc2)=NO3)c([N+](=O)[O-])c1
-6.1% | O=C(C1COc2ccccc2O1)N1CCN(c2ccccc2)CC1 (stereo unspecified)
-23.1% | COc1ccc(C(=O)Nc2cccc(-c3nc4ncccc4o3)c2C)cc1OC
-2.4% | Cc1noc(C)c1COc1ncnc2ccccc12
20µM* | O=c1c2cc(F)ccc2sn1-c1ccccc1
5.6% | COC(=O)CCSCc1cn2cc(Cl)ccc2n1
-6.7% | Clc1cccc(/C=N\Nc2nccs2)c1
? | CN(CC(=O)Nc1cccc(F)c1)C(=O)c1cc(-c2ccco2)nc2ccccc12
-1.9% | O=C(Cn1nnc(-c2ccccc2)n1)NC(=O)NC1CCCC1
7.7% | COc1ccccc1NC(=O)Cn1c(=O)n(-c2cccc(Cl)c2)c(=O)c2sc3ccccc3c21
3.2% | CNc1nc2ccccc2n1/N=C/c1cccc(OC)c1OC
5.9% | Cc1ccc(CNC(=O)CCCCCn2c(=O)c3sccc3n(CC(=O)Nc3c(C)cc(C)cc3C)c2=O)cc1
-1.6% | COc1ccc(NC(=O)CN(C)C(=O)Cc2ccc3c(c2)CCC3)cc1
-6.0% | COc1ccc(NC(=O)CCc2c(C)nc3c(-c4ccc(F)cc4)c(C)nn3c2C)c(OC)c1
-9.5% | CC(C)Oc1cc2ccccc2cc1CNC[C@H]1O[C@@H](n2cnc3c(N)ncnc32)[C@H](O)[C@@H]1O
? | CCNc1ncc2nc(-c3ccc(F)cc3)c(=O)n(-c3ccc(OC)cc3)c2n1
18.3% | C=CCCC(=O)N1CCC(Oc2cccc(C(=O)NCc3ccccn3)c2)CC1
5.5% | O=C1CN(C(=O)c2ccco2)c2ccccc2N1
1.3% | C=CCOc1ccccc1/C=N/NC(=O)Cc1ccccc1
47.3%[activator] | N#CCC(=O)N/N=C\c1cc(Br)ccc1OC/C=C/c1ccccc1
15.9% | O=C(c1ccc(Nc2cccc(C(F)(F)F)c2)nc1)N1CCCC1
-12.5% | COc1cccc(CNc2ccc([N+](=O)[O-])cc2C)c1
-1.4% | COc1ccccc1N1CCN(C(=S)Nc2ccc(S(=O)(=O)N3CCOCC3)cc2)CC1
-13.7% | Cc1ccccc1OCc1nnc2c3cnn(C)c3ncn12
-7.8% | CCOC(=O)C1(C(F)(F)F)N=C(c2cccnc2)OC(N2CCCCC2)=N1 (stereo unspecified)
8.9% | COc1ccccc1/C=C\C(=O)OC[C@@H]1CCCN2CCCC[C@H]12
14.5% | Cc1ccc(CNS(=O)(=O)c2ccc3oc(C(=O)O)c(C)c3c2)cc1
-11.4% | Cc1nc(NCCc2ccccc2)c2nnn(Cc3ccccc3Cl)c2n1
4.2% | COCCNC(=O)COc1cccc2c1OC(C)(C)C2
-0.1% | CCOC(=O)NC(=O)c1cn(C(CC)CO)c(=O)[nH]c1=O (stereo unspecified)
-6.9% | COc1ccccc1NC(=S)Nc1ccccc1F
9.2% | CN1CCN(C(=O)CN2C(=O)COc3ccc(S(=O)(=O)N4CCOCC4)cc32)CC1
-8.7% | CC(C)CC(=O)NCC(C)NC(=O)CC(C)C (stereo unspecified)
7.0% | CC(=O)c1cccc(OCC(=O)N(CCC2=CCCCC2)c2c(N)n(Cc3ccccc3)c(=O)[nH]c2=O)c1
-7.8% | CC(C)CN(C(=O)COc1ccc([N+](=O)[O-])cc1)c1c(N)n(CC(C)C)c(=O)[nH]c1=O
-3.7% | O=C(COc1ccccc1Cl)Nc1ccc(Cl)c(-c2nc3ccccc3o2)c1

# Further compounds:
VDR inhibitor | SMILES
25.5% | O=C(N=c1ccn(-c2nc3ccccc3nc2NS(=O)(=O)c2ccccc2)cc1)c1cccs1
12.5% | COc1ccc(CNC(=O)CN(C)S(=O)(=O)c2ccc3c(c2)OCCO3)cc1OC
4.4% | Cc1ccc(C(=O)O/N=C2\CCSc3ccc(C)cc32)cc1
-12.3% | CCCc1cc(C(=O)Nc2ccc(OC)cc2[N+](=O)[O-])cs1
15.6% | COc1cccc(-n2cc3c(c2-c2ccccc2)c(=O)n(C)c(=O)n3C)c1
-5.0% | COC(=O)c1ccc([C@H]2Nc3ccc(S(=O)(=O)Nc4ccc(F)cc4)cc3[C@H]3C=CC[C@H]32)cc1
0.5% | COc1ccc(N=C2SC(C(N)=O)CC(=O)N2Cc2ccc3c(c2)OCO3)cc1 (stereo unspecified)
-2.2% | N#CC1(NC(=O)COC(=O)C2=COCCO2)CCCCC1
-9.0% | Cc1ccc2ccccc2c1CSc1nc(N)nc2c1ncn2CC(C)C
-30.0% | N#C/C(=C/c1ccc(O)c([N+](=O)[O-])c1)C(=O)Nc1ccccc1
6.7% | COc1ccccc1CNC(=O)CCC1N=C2c3ccccc3N=C(SCC(=O)NCCc3ccccc3)N2C1=O (stereo unspecified)
-8.3% | C=CCNCCCOc1ccc(Cl)cc1Br
-7.6% | COC(=O)c1cc(-n2cccc2)ccc1N1CCOCC1
? | CCOC(=O)Nc1ccc2c(c1)N(C(=O)CCN(CC)CC)c1ccccc1S2=O (stereo unspecified)
-2.8% | COCCN(Cc1cc2cc3c(cc2nc1Cl)OCO3)C(=O)c1ccc(C)cc1
-9.7% | CN(C)c1nc(N)c2ncc(=S)[nH]c2n1
9.8% | C=CCSc1nnc(NC(=O)c2cccc(S(=O)(=O)N3CCOCC3)c2)s1
0.0% | O=C(Nc1cccc(F)c1)NC1(C(=O)N2CCC(O)CC2)CCCCC1
-12.6% | CN1CCC(=O)N([C@H](CSc2ccc(Br)cc2)Cc2ccccc2)CC1
-0.3% | CC(=O)c1c(C)[nH]c(C)c1C(C)=O

# Four compounds out of the list, ordered by length of the SMILES, smallest number first.
VDR inhibitor | SMILES
5.6% | COC(=O)CCSCc1cn2cc(Cl)ccc2n1
-12.5% | COc1cccc(CNc2ccc([N+](=O)[O-])cc2C)c1
-4.3% | CCOc1ccc(N2CC(c3nc4ccccc4n3Cc3cccc(Cl)c3)CC2=O)cc1 (stereo unspecified)
10.3% | CCc1ccc(CN(C)CC(=O)Nc2ccc(S(=O)(=O)N3CCOCC3)cc2)cc1

# The list goes on:
VDR inhibitor | SMILES
10.9% | N#CCc1nn(Cc2ccc(F)cc2)c(=O)c2ccccc12
18.2% | CCOc1ccc(N2CC(c3nc4ccccc4n3CCCOc3ccccc3)CC2=O)cc1 (stereo unspecified)
-12.7% | COc1ccc(S(=O)(=O)N2CCN(C(=O)CCNC(=O)c3ccccc3Cl)CC2)cc1
-2.9% | Cc1cc(C)cc(NC(=O)CCc2nnc3n(C)c(=O)c4sccc4n23)c1
-1.9% | COc1ccc2c(c1)c(C(=O)CNc1nc(C)cs1)c(C)n2C
7.2% | Cc1cc(C(=O)NP(=O)(N2CC(C)OC(C)C2)N2CC(C)OC(C)C2)c(C)n1C1CC1 (stereo unspecified)
-5.1% | Cc1ccc(C(=O)NN2C(=O)C3C4C=CC(C5CC45)C3C2=O)cc1 (stereo unspecified)
6.4% | CCCOC(=O)NC1C(NC(=O)OCCC)N(C)C(=O)N1C (stereo unspecified)
-7.4% | COc1ccc(-n2cnnc2SCC(=O)N2CCN(c3ccccc3)CC2)cc1
10.6% | O=C(NCCNc1ccccc1[N+](=O)[O-])c1cc(F)c(F)cc1Cl

# Filtered by structure: those above containing a furan ring, fused or not
VDR inhibitor | SMILES
-19.5% | O=C(CSc1ccc(-c2ccco2)nn1)N1CCCCC1
-0.2% | NC(=O)c1oc2ccccc2c1NC(=O)C1CCCCC1
? | CN(CC(=O)Nc1cccc(F)c1)C(=O)c1cc(-c2ccco2)nc2ccccc12
5.5% | O=C1CN(C(=O)c2ccco2)c2ccccc2N1
14.5% | Cc1ccc(CNS(=O)(=O)c2ccc3oc(C(=O)O)c(C)c3c2)cc1

# Next section:
VDR inhibitor | SMILES
8.2% | Cc1ccc(C(=O)c2c(N)c(-c3nc(-c4ccc5c(c4)OCO5)cs3)c3ccccn23)cc1C
5.2% | COc1cccc(-c2nc(SC(C(C)=O)C(=O)N(C)C)c3c(=O)n(C)c(=O)n(C)c3n2)c1 (stereo unspecified)
4.6% | CCOc1ccccc1NC(=O)c1cc(C(=O)c2cc(OC)ccc2O)coc1=N
3.6% | CCC(C(=O)N1CCN(S(C)(=O)=O)CC1)c1ccccc1 (stereo unspecified)
-11.2% | O=C(Nc1ccc(C(F)(F)F)cc1)c1ccc(NC(=O)C2CCCO2)cc1 (stereo unspecified)
-4.1% | NS(=O)(=O)c1ccc(CNC(=O)c2cccnc2Cl)cc1
3.8% | CCC(Sc1nnc2c3ccccc3n(CC)c2n1)C(=O)Nc1ccc(NC(C)=O)cc1 (stereo unspecified)
? | O=c1cc(-c2cc(O)c(O)c(O)c2)oc2cc(O)cc(O)c12
16.6% | COc1ccc2nc(N(Cc3cccnc3)C(=O)C3CCCCC3)sc2c1
2.9% | CC1CN(Cc2nc3ccccc3c(=O)[nH]2)CC(C)O1 (stereo unspecified)
-9.4%&-1.5% | CC(C)c1ccc(CN(C(=O)c2cc3ccccc3oc2=O)C2CCS(=O)(=O)C2)cc1 (stereo unspecified)
-1.6% | Cc1cc(C)cc(NC(=O)CSc2nnc(NC(=O)C3CC3)s2)c1
? | COc1ccccc1/C=C/C1=NC(=C\C=C/c2ccccc2)/C(=O)O1
-22.3% | CCn1c(C(=O)NC(C)c2ccc3c(c2)OCCO3)cc2sccc21 (stereo unspecified)
12.4% | O=C(Nc1ccc2c(c1)OCCO2)Nc1ccc2c(c1)OCO2
15.9% | COC(=O)/C(N=Nc1cccc(C(F)(F)F)c1)=C(\C)O
-14.4% | CCc1cccc(C)c1Nc1c(-c2ccc(F)cc2)nc2sccn12
11.8% | CCOc1ccc(C(=O)Nc2ccc(S(=O)(=O)N(Cc3ccccc3)c3ccccc3)cc2)cc1
-2.6% | COc1cccc(-c2cc3nc4c(c(NCC(C)(C)CN(C)C)n3n2)CCCC4)c1

# These rows are one share of the data (hit frequency here may not be typical).
